High-throughput results deposited in PubChem BioAssay by National Center for Advancing Translational Sciences (NCATS).
ClpP mod: qHTS Assay for Activators of ClpP | purified B. subtilis ClpP, FRET peptide cleavage, 20 min | Potency, µM (doses to about 57.5 µM), for inactives: at the highest dose activity change, negative = active | 340,000 tested, 1.9% active | AID 651965, 2013; active = well fitted falling curve with a large enough effect; inconclusive = small, poorly fitted or top-dose-only effect; inactive = no such curve, though single readings can be large or run the other way; note: potency is the fitted concentration of half-maximal effect; the source files actives as falling curves though it sought activators and does not explain the sign; nearly all actives have a fitted effect of over 65% in size; many hits overshoot -100%
Target sequence (P80244 whole entry, looked up): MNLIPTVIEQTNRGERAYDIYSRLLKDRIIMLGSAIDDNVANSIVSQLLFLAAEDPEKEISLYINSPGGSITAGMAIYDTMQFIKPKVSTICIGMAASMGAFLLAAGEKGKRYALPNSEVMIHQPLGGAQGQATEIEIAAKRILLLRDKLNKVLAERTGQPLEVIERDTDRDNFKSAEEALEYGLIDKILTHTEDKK
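Purified B. subtilis ClpP, 10 microg/mL final in Tris/HCl pH8 with KCl, BSA, glycerol and Tween-20, cleaved an Abz/nitrotyrosine-quenched decapeptide. Fluorescence (ex 320, em 430) was read at 0 and 20 min at room temperature. Delta was normalized to 5.8 microM ADEP and DMSO/no-enzyme controls.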
TRPML1 inh: blocks the human TRPML1 channel; Q9GZU1; TRPML1-inducible cells, Ca2+ dye fluorescence, FDSS; hits give low values; inhibition of EC80 agonist-evoked calcium signal; activity change, negative = inhibition, % (no concentration beside the values); 390,000 tested, 0.02% active; AID 624415; in the data active means activity change below about -50%; inconclusive means about -30% to -50%; inactive means above about -30%;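 note: stimulus is agonist 54-4 at its EC80 concentration; % is set by controls: 0 for no effect and ±100 for the full control effect; compound concentration not given in the record; the text of the record puts the active cut at -80%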
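TRPML1-DL cells, Tet-induced overnight (~16 h, 37 °C) at 1,500 cells/well, were loaded with Ca8 no-wash dye plus quencher for 45-90 min at room temperature. Compounds were pinned during FDSS kinetic reading; agonist 54-4 at EC80 (4 uM final) then added.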
Menin MLL FP FL: displaces fluorescein MLL peptide from human menin; Fluorescence polarization, fluorescein-MLL peptide displacement from menin; FP activity change, % at 61.4 µM; 290,000 tested, under 10 active; AID 1766; inconclusive = falling polarisation curve, or a change in total fluorescence; inactive = total fluorescence flat and polarisation flat or rising; no compound was filed as active; the % refers to the polarisation; negative = inhibition;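 note: % of control where 0% means no effect; inhibitors lower the polarisation; unlabelled MLL peptide was the positive control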
PINK1 expr mod: changes PINK1 expression. 410,000 tested, 0.2% active. PINK1 immunofluorescence, high-content cytometry, 24 h. Potency, µM (highest dose often 76.6 µM), for inactives: at the highest dose activation (PINK1 increase), actives largely listed as activators; active = well fitted activation curve with a large enough effect; inconclusive = small, poorly fitted or top-dose-only effect; inactive = flat fitted curve, though single readings scatter; cell line not stated here;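 note: potency is the fitted concentration of half-maximal effect; % of control where 0% means no effect; nearly all actives have a fitted effect of over 65% in size; a mitochondrial uncoupler was the plate control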
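Stable cell line treated 24 h with compounds at 5 concentrations (CCCP controls), then fixed and immunostained for PINK1 plus nuclear and cell stains; PINK1 immunofluorescence quantified by laser-scanning microplate cytometry.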
TRPV1 potentiator: potentiators of human vanilloid receptor 1 (TRPV1); potentiation, % at 8.33 µM; 320,000 tested, 0.02% active; Q8NER1; TRPV1-expressing cells, Fluo-8 calcium influx, capsaicin EC20 potentiation; host cell line not named in the record; control for the full effect not named in the record; active means potentiation above 80%; inconclusive means 30% to 80%; inactive means below 30%; note: 0% is about no effect
Target sequence (Q8NER1 whole entry, looked up): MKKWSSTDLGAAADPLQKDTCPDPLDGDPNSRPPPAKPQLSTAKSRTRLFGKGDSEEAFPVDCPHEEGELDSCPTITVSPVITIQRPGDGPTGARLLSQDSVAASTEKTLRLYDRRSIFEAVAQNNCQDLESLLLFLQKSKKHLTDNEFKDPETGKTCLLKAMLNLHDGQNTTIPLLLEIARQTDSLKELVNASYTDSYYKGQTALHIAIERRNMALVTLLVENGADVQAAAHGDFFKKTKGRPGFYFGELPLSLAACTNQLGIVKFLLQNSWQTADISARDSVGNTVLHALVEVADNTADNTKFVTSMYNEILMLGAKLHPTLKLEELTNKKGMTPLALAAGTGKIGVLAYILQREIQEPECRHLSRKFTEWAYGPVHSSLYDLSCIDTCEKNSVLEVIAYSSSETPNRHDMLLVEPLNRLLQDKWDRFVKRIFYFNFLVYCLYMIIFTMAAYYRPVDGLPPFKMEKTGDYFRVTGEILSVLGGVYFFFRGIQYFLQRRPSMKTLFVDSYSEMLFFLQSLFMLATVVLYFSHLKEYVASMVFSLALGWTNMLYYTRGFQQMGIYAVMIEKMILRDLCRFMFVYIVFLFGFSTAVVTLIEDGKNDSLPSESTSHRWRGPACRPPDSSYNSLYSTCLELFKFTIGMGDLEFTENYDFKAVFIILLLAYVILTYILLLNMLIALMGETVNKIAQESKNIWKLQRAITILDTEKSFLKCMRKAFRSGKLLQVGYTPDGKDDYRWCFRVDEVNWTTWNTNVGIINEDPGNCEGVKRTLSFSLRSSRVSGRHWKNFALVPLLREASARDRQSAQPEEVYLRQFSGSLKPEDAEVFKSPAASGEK
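Cells expressing TRPV1 were dye-loaded with Fluo-8 and read kinetically: 10 s baseline, 3 min after compound (agonist portion), then 2 min after EC20 capsaicin (allosteric enhancer portion). Calcium-bound dye fluorescence at 480/520 nm.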
Sfp PPTase inh: inhibitors of Bacillus subtilis Sfp phosphopantetheinyl transferase. Q9F4F7. Biochemical Sfp PPTase activity, qHTS. Potency, µM, without a hit: max response, negative = inhibition, usual class: inhibitors. 310,000 tested, 3.5% active. AID 1490; active = well fitted inhibition curve with a large enough effect; inconclusive = small, poorly fitted or top-dose-only effect, or another doubt; inactive = no such curve, though single readings can be large or run the other way;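 note: the enzyme is Sfp with the accession as filed and its product quenches rhodamine fluorescence; potency is the fitted concentration of half-maximal effect; 0% = enzyme reaction without inhibitor and -100% = no enzyme wells; top concentration of the series not given in the record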
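After 15 min at room temperature with compound, 15 nM Sfp received 5 uM rhodamine-CoA plus 12.5 uM BHQ-2-ybbR (50 mM Hepes pH 7.6, 10 mM MgCl2). Rate came from the fluorescence difference over 30 min, ex 525/em 598 nm.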
TRPML1 agonist: activates the human TRPML1 channel | AID 624414 | Q9GZU1 | TRPML1-expressing cells, Ca2+ dye fluorescence, FDSS; host cell line not named in the record; reference of the full effect not given here | activation, % (test concentration not listed) | 410,000 tested, 0.12% active; in the data active = activation above about 50%; inconclusive = about 30% to 50%; inactive = below about 30%; note: 0% is about no effect; the text of the record puts the active cut at 80%
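TRPML1-DL cells, Tet-induced overnight (~16 h, 37 degrees C), loaded 45-90 min at room temperature with Ca8 no-wash calcium dye plus quencher. FDSS fluorescence: 10 s baseline, compound pin-transfer, 110 s agonist read, then EC80 54-4 (4uM final) and 110 s antagonist read.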
* = called active by the depositor; ? = inconclusive; / = not tested or not shown; [ ] = another dose, or the depositor's remark.

Every second line gives: TRPML1 agonist	ClpP mod	TRPV1 potentiator	PINK1 expr mod	TRPML1 inh	Menin MLL FP FL	Sfp PPTase inh
> COc1cc(-c2noc(C)c2C(=O)NCCc2ccccc2)cc(OC)c1OC
  -0.1	-3.7%	/	-0.3%	-6	/	/
> COc1ccccc1/C=N/OCc1ccc(C#N)cc1
  4.6	/	6	1.7%	-15	-1.0	-8%
> Cc1ccc(CSCc2ccc(C(=O)NC3CCCC3)o2)cc1
  0.2	-3.2%	-19	0.7%	-29	-0.6	2%
> CCOC(=O)C1CCN(C(=O)c2cc(S(=O)(=O)N(C)C)ccc2N2CCCC2)CC1
  0.4	-2.2%	8	1.9%	-2	/	17%
> O=S(=O)(NCCc1ccc(Cl)cc1)c1cccs1
  0.4	1.1%	-18	0.8%	9	/	8%
> Cc1ccc[n+](CC(=O)Nc2ccc(C)c(C)c2)c1
  -0.1	0.3%	-1	1.3%	6	-4.0	2%
> O=C(Nc1ccc2c(c1)OCO2)c1cccc2c1C(=O)N(C1CCCCC1)C2
  0.1	/	4	1.6%	2	-4.0	5%
> CCN(CC)S(=O)(=O)c1ccc(/C=C/C(=O)OCC(=O)c2c(N)n(C)c(=O)n(C)c2=O)cc1
  -0.7	-0.2%	-2	4.1%	-9	-0.8	20%
> O=C(Cn1nc(-c2ccccc2)c2ccccc2c1=O)Nc1ccc2c(c1)nc1n2CCOC1
  -0.1	-4.3%	7	4.2%	-10	1.7	14%
> CCOC(=O)CSc1n[nH]c(=O)n1CCc1ccccc1
  /	0.5%	15	-0.7%	/	-4.6	4%
> CCCNS(=O)(=O)c1cccc(C(=O)NC2CCCc3ccccc32)c1 (configuration not stated)
  3.3	1.5%	-4	-2.4%	48	1.7	-5%
> CCOC(=O)C1=C[C@@H](C2CCCCC2)N(S(=O)(=O)c2ccc([N+](=O)[O-])cc2)[C@H]1c1ccccc1
  -0.4	2.3%	/	1.4%	-10	/	/
> O=C(OCc1ccccc1F)c1cnc(Cl)c(Cl)c1
  -0.4	/	-6	3.3%	18	6.0	-8%
> CC(=O)N1CCC(C(=O)N2CCN(S(=O)(=O)c3ccc(F)cc3)CC2)CC1
  0.2	-0.3%	15	-0.1%	21	/	8%
> O=C(NN=C1CCCCCC1)c1cc2ccccc2cc1O
  0.2	0.8%	7	0.3%	2	9.1	1%
> COc1cc(C(=S)N2CCOCC2)ccc1OC(=O)c1cccc(C)c1
  1.6	0.7%	-12	2.0%	6	0.9	79µM*
> CN(Cc1nc2ccccc2[nH]1)Cc1nc(CC2CC2)no1
  0.5	-2.8%	7	-0.3%	-4	-3.3	14%
> O=C(NC1CC1)C1=C[C@H](c2ccccc2)C[C@H](OCc2ccc(CO)cc2)O1
  -1.0	1.8%	-2	-0.7%	-14	-11	10%
> CC(C)c1ccc(OCC(=O)N(Cc2cccs2)C2CCS(=O)(=O)C2)cc1 (configuration not stated)
  -0.9	0.6%	/	-0.1%	-8	/	/
> O=c1[nH]c2ccccc2c(O)c1-c1ccccc1
  -0.5	-3.8%	-14	2.0%	-1	-2.6	11%
> Cc1ccc2oc(=O)c3cnn(CC(=O)N4CCN(c5ccc(F)cc5)CC4)c3c2c1
  -0.5	-5.8%	/	-1.5%	-13	/	/
> O=C1CCC(C(=O)N2CCCC(C(=O)c3ccc4ccccc4c3)C2)=NN1 (configuration not stated)
  -0.3	-25%	-18	3.7%	18	/	10%
> COc1cccc(OCCOc2ccc(/C=C3\C(=N)N4N=C(S(C)(=O)=O)SC4=NC3=O)cc2OC)c1
  0.9	-0.4%	3	3.8%	4	-2.5	-7%
> CCNC(=O)C1(C)CCN(C(=O)c2ccc(C#N)cc2)C1 (configuration not stated)
  0.2	1.7%	/	-0.7%	-5	/	/
> Cc1ccc(-c2nnnn2C2C/C(=N\NC(N)=S)C3OCC2O3)cc1 (configuration not stated)
  0.4	/	-12	0.2%	42	-1.0	-2%
> COCCn1cnc2c1c(=O)n(Cc1ccccc1C#N)c(=O)n2Cc1ccccc1
  -0.3	/	-8	1.9%	2	-0.1	12%
> O=C(Nc1ccc(Nc2ccccc2)cc1)c1cc([N+](=O)[O-])ccc1Cl
  -0.4	-1.5%	?	-2.2%	1	1.0	14%
> Cc1cccc(NC(=O)c2cccc(C(=O)Nc3cccc(C)n3)c2)n1
  -0.7	-4.2%	-14	2.8%	-16	4.6	6%
> Cc1ccc(NC(=O)c2ccc(=O)n(CC(=O)Nc3cccc(C)c3)n2)cc1
  1.2	0.9%	/	1.5%	19	/	/
> COCCCN(Cc1ccco1)C(=O)c1cc2c(s1)-c1ccccc1OC2
  3.9	4.0%	/	4.4%	13	/	/
> O=C(NCCC1=CCCCC1)C1COc2ccccc2O1 (configuration not stated)
  0.6	-1.0%	-17	1.8%	1	-2.2	12%
> CC1CN(C(=O)CCC(=O)NCCCN2C(C)CCCC2C)c2ccccc2O1 (configuration not stated)
  0.2	-1.6%	2	0.4%	1	1.4	14%
> CCc1ccc(NC(=O)Nn2cnnc2)cc1
  0.2	0.2%	-7	1.5%	39	/	9%
> Cc1ccc(C)c2[nH]c(=O)c(CN(Cc3ccco3)C(=O)Nc3ccccc3)cc12
  0.3	-18%	0	-0.2%	2	1.5	-29%
> CC1(C(=O)NS(=O)(=O)c2ccccc2)CCN1C(=O)CC1CCCC1 (configuration not stated)
  -0.3	5.0%	/	-0.7%	/	/	/
> COc1cccc(CNC(=O)CC(c2ccc(C)cc2)N2Cc3ccccc3C2=O)c1 (configuration not stated)
  2.4	-0.7%	/	0.0%	-4	/	/
> CSc1c(-c2ccccn2)c(N)nn1C(=O)C1CC1
  1.7	-1.0%	0	3.1%	5	?	-3%
> C=CCN1C(=O)C(CC(=O)O)SC1=Nc1ccc(C(=O)O)cc1 (configuration not stated)
  -0.7	/	6	1.1%	0	-6.4	13%
> O=C1Nc2ccccc2C(=O)N2[C@H](c3cccc(Br)c3)[C@@H]3C(=O)N(Cc4ccccc4)C(=O)[C@@H]3[C@H]12
  0.9	-1.3%	-1	0.2%	10	6.1	8%
> O=C(/C=C/Nc1ccc(Cc2ccc(N/C=C/C(=O)C(F)(F)F)cc2)cc1)C(F)(F)F
  0.0	4.2%	-16	1.2%	17	11	13%
> CCOC(=O)N1CCN(C(=O)CN(c2cc(C(F)(F)F)ccc2Cl)S(C)(=O)=O)CC1
  0.2	0.2%	1	/	-9	-2.3	18%
> Cc1ccc(NC(=O)CSCc2cc(=O)n3ccsc3n2)c(C)c1
  0.0	-3.8%	-10	-1.2%	-8	/	-4%
> Cc1cc(C)n(-c2nc3ccccc3c(=O)n2OCC(=O)OCc2ccccc2)n1
  2.5	-1.2%	-12	9.9%	7	-2.3	-10%
> O=C1OC(/C=C/c2ccccc2)=NC/1=C\c1cccnc1
  1.3	/	2	-0.2%	16	2.7	22%
> COc1cc2c(cc1NC(=O)C(C)OC(=O)c1ccc(S(=O)(=O)Nc3ccccc3Cl)cc1)oc1ccccc12 (configuration not stated)
  -0.7	-4.0%	4	0.5%	-7	4.6	-4%
> CC1Cc2cc(S(=O)(=O)CCC(=O)NCc3ccco3)ccc2N1C(=O)C1CC1 (configuration not stated)
  -0.4	0.9%	3	9.9%	7	-1.2	-10%
> CC1(Oc2ccccc2)CCN(Cc2csc3ccccc23)C1 (configuration not stated)
  -0.5	0.2%	/	23%	/	/	/
> Cc1cccc(Sc2nc(-c3ccccc3)ccc2C#N)c1
  0.7	?	?	66%[38.3 µM]	9	4.7	-9%
> Cc1nn(C)cc1C(N)=O
  -0.2	-1.1%	-6	1.2%	?	-0.8	1%
> C[C@]12c3[nH]c4cc(-c5ccco5)ccc4c3CCN1C(=O)[C@@H](CC(=O)NCc1cccc(C(F)(F)F)c1)C[C@@H]2C(=O)N1CCCCC1
  1.1	3.7%	/	5.2%	-15	/	/

Continued.
Every second line gives: TRPML1 agonist	ClpP mod	TRPV1 potentiator	PINK1 expr mod	TRPML1 inh	Menin MLL FP FL	Sfp PPTase inh
> COc1cccc(C(C(=O)NC2CCCC2)N(C(=O)c2ccco2)c2ccc(C(C)=O)cc2)c1OC (configuration not stated)
  -0.3	/	-9	2.4%	14	1.9	11%
> CC1CCc2sc(C(=O)N(C)CC(=O)Nc3ccc(N4CCOCC4)cc3)cc2C1 (configuration not stated)
  0.4	-1.2%	0	3.0%	-4	-0.5	-2%
> Cc1c(C(=O)NCc2ccccc2Cl)sc2ncnc(N(C)C3CCCCC3)c12
  2.4	?	/	-0.7%	3	/	/
> Nc1nc2c(Cl)cc(Cl)cc2s1
  -0.5	/	-4	-0.5%	6	-1.8	10%
> Cc1ccc(C)c(Cn2c(=O)n(CCCC(=O)NCCc3ccc(Cl)cc3)c(=O)c3ccccc32)c1
  2.1	-1.9%	/	9.4%	-2	/	/
> COc1ccc(S(=O)(=O)N(C)CC(=O)NCCC2=CCCCC2)cc1
  -0.7	0.7%	-8	-1.1%	14	1.0	19%
> CC(C)NS(=O)(=O)c1ccc(Oc2ncc(C(F)(F)F)cc2Cl)cc1
  4.9	-0.7%	19	-0.1%	-2	2.6	-26%
> CC(NS(=O)(=O)c1ccc(Cl)c(Cl)c1)C(=O)OCC(=O)N1CCCCCC1 (configuration not stated)
  -0.2	-1.1%	-3	0.4%	-15	/	/
> CCCNC(=O)COC(=O)c1ccc(OCC(=O)Nc2ccccc2OC)c(OC)c1
  -0.5	1.2%	2	1.9%	-13	1.8	-13%
> CC(=O)Nc1ccc(NC(=O)C2CCN(C(=O)c3ccc([N+](=O)[O-])cc3)CC2)cc1
  -0.7	/	11	0.1%	6	1.4	8%
> c1ccc(-c2csc3ncnc(NCCN4CCOCC4)c23)cc1
  -0.3	-1.7%	-5	-1.6%	-12	12	12%
> O=C(COc1ccccc1F)Nc1ccc2c(c1)CCC2
  0.8	0.6%	/	11%	2	/	/
